# CapD inh: CapD enzyme inhibition | actives 0.23% (n = 140,000) | purified CapD enzyme, fluorescence intensity read-out; hits give low values; some hits fall short of the stated cut | AID 492967 | z-score (test concentration not listed);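 active = z-score under -4 in either of two replicates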;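 also: stock transfer was 100 nL into about 40 µL; score is relative to mean and spread of the plate; one replicate is shown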
# AID504770: growth inhibitors of E. coli YBA685 in a screen for V. cholerae RctB (chromosome II replication) inhibitors | E. coli YBA685 rctB-dependent plasmid, OD600 growth, 3 h; hits give low values | AID 504770 | actives 0.27% (n = 130,000) | z-score (no concentration beside the values);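 active = z-score under -2 on both plates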;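 also: wells of about 30 µL received 100 nL stock; score is relative to mean and SD of the test wells; the first replicate is given; strong numbers were not always called active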
# An asterisk follows results filed as active; / = no result given.
# Sample of the layout (5 entries):
# Values run as follows: CapD inh, AID504770
O=C(Nc1cc(Cl)ccc1Oc1ccc(Br)c2ccccc12)c1cc(Br)cc(Br)c1O
 : 1.2, /
CCn1c(=O)cc(SCC(=O)NC(C)C)c2ccccc21
 : 3, 0
CCOC(=O)C1=C(C)N=c2s/c(=C3\C(=O)N(CC)c4ccccc43)c(=O)n2C1/C=C/c1ccccc1 (centres undefined)
 : -0.14, /
Cc1ccc(NC(=O)C(c2ccccc2)N2CCCCC2)cc1 (centres undefined)
 : /, -0.15
NC(=O)NC(=O)CC1S/C(=N/N=C/c2ccccc2)NC1=O (centres undefined)
 : /, 0.6

# The list itself, previewed entries included:
# Values run as follows: CapD inh, AID504770
O=C(Nc1cc(Cl)ccc1Oc1ccc(Br)c2ccccc12)c1cc(Br)cc(Br)c1O
 : 1.2, /
CCn1c(=O)cc(SCC(=O)NC(C)C)c2ccccc21
 : 3, 0
CCOC(=O)C1=C(C)N=c2s/c(=C3\C(=O)N(CC)c4ccccc43)c(=O)n2C1/C=C/c1ccccc1 (centres undefined)
 : -0.14, /
Cc1ccc(NC(=O)C(c2ccccc2)N2CCCCC2)cc1 (centres undefined)
 : /, -0.15
NC(=O)NC(=O)CC1S/C(=N/N=C/c2ccccc2)NC1=O (centres undefined)
 : /, 0.6
COC(=O)C(Cc1csc2ccc(Cl)cc12)NC(=O)c1ccc(C(F)(F)F)cc1 (centres undefined)
 : -0.15, 0.45
O=C(NC1CCCC1)c1c[nH]c2ccc(S(=O)(=O)Nc3ccccc3F)cc2c1=O
 : 67, 0.6
COc1cc(/C=N/NC(=O)c2csc(CS(=O)(=O)Cc3ccco3)n2)cc(O)c1OC
 : 0.48, /
O=C(c1cc(=O)[nH]c2ccccc12)N(Cc1ccco1)Cc1cccs1
 : /, -0.9
CSc1cccc(N2CC(C(=O)N3CCN(S(=O)(=O)Cc4ccccc4)CC3)CC2=O)c1 (centres undefined)
 : /, -0.75
CN(c1ncc(C(F)(F)F)cc1Cl)n1cccc1
 : 0.09, -0.35
CCn1c(-c2ccc3c(c2)OCCO3)cnc1SCc1cc(=O)n2ccsc2n1
 : /, 0.15
CC(C)c1ccc(NC(=O)CSc2ncnc(N)n2)cc1
 : -0.18, -0.9
C=CCOc1c(Br)cc(Br)cc1/C=C1\NC(=S)NC1=O
 : 1.5, /
CNC(=O)C1CCN(c2nnc(-n3c(C)ccc3C)s2)CC1
 : 0.72, 0.65
COc1ccc(Cn2c(=O)c3oc4ccccc4c3n(CC(=O)Nc3ccccc3)c2=O)cc1
 : 7.6, -0.3
CCOC(=O)C1CCN(C(=O)c2sc3ncnc(N4CCC(C)CC4)c3c2C)CC1
 : -0.065, /
O=C(CSCc1nc(-c2ccccc2)cs1)NNC(=O)OC/C=C/COCc1ccccc1
 : -0.59, /
CCCC(=O)N1c2ccccc2-c2c(ssc2=S)C1(C)C
 : -0.44, /
Cc1cc(C)nc(N2CCN(C(=O)CCC(=O)N3CCc4ccccc4C3)CC2)n1
 : 1.2, /

# Values run as follows: CapD inh, AID504770
Cn1c(CNC(=O)Cc2cccnc2)nnc1SCc1ccccc1
 : /, 1.8
Clc1ccc(C(=Nc2ccccc2)c2ccccc2)cc1
 : -0.15, /
COc1nc(Nc2ccccc2F)nc(OC)n1
 : -0.54, /
O=C(O)CCSC1CC(=O)N(c2ccccc2)C1=O (centres undefined)
 : 0.25, 0.95
Fc1ccc(-c2cn3c(n2)Cc2ccccc2C3)cc1
 : 2.1, /
O=C(CNc1ccccc1C(=O)O)c1ccccc1
 : 18, /
CCOc1ccc(NC(=O)CSc2nc3ccccc3c(=O)n2CCC(=O)N2CCN(c3ccccc3)CC2)cc1
 : -2.2, /
Cc1ccc(OCc2nc(N)nc(N(C)C)n2)cc1C
 : -0.055, 0.55
C=CCn1c(SCc2nnc(-c3cccs3)o2)nc2scc(C3CC3)c2c1=O
 : /, -0.05
CCOc1ccc(N(C)S(=O)(=O)c2ccc3[nH]cc(C(=O)N(CC)Cc4ccccc4)c(=O)c3c2)cc1
 : 0.69, /
Cc1ccc2oc(=O)n(CC(C)C)c2c1
 : -0.42, -0.4
COc1ccc(Cn2c(=S)[nH]c3cc(C(=O)NCCc4ccc(OC)c(OC)c4)ccc3c2=O)cc1
 : 0.15, /
CCOC(=O)NC1(/N=C(/Nc2ccccc2)N2CCOCC2)Oc2ccccc2O1
 : 0.8, 0.3
CCOC(=O)CSc1cc(-n2cccc2)c(Cl)cc1[N+](=O)[O-]
 : 0.24, /
COc1ccc(C(=O)CSc2nc3c(cc2C#N)CCCC3)cc1
 : /, -0.25
O=C(NCCc1ccccc1)c1ccc(-c2ccccc2)cc1
 : 0.7, 0.9
Cn1c(=O)c2c(nc3n(Cc4ccccc4)c(-c4cccs4)cn23)n(C)c1=O
 : 1.5, /
CS(=O)(=O)N1CC(=O)Nc2ccccc21
 : 0.51, -0.25
Cc1c2cnn(-c3ccccc3)c(=O)c2c(C)n1CCCC(=O)NC(C)(C)C
 : 0.72, -0.55
CCCCc1ccc(C2=N/C(=C\c3ccc(OC(C)=O)c(OC(C)=O)c3)C(=O)O2)cc1
 : 4.6, /

# Values run as follows: CapD inh, AID504770
COc1ccc(C(=O)Nc2cc(C(=O)Nc3ccc(OC)c(OC)c3)ccc2N2CC3CC(C2)c2cccc(=O)n2C3)cc1 (centres undefined)
 : -0.23, /
CC(C)(C)C1CCC(=NNC(=O)c2ccccc2O)CC1 (centres undefined)
 : 0.27, -0.9
CCC(CC)NC(=O)c1cc(=O)[nH]c2ccccc12
 : /, -0.2
Cc1cccc(OCC(=O)OCCN2CCCC2=O)c1
 : 0.43, 1.9
COc1ccc(CN(Cc2cccs2)C(=O)c2ccc(C)o2)cc1OC
 : /, 0.45
O=C1c2ccccc2C2N1c1ccccc1S(=O)(=O)N2Cc1ccccc1 (centres undefined)
 : 1.2, 0.05
CCCCCCN1C=CC(=C2C(=O)c3ccccc3C2=O)C=C1
 : 0.36, -0.9
O=c1[nH]c2ccc(S(=O)(=O)NCc3cccnc3)cc2[nH]1
 : -0.24, -0.4
CCN(C(=O)CCc1ccccc1)c1ccccc1
 : 0.35, -0.55
O=C(O)CCC1NCC(Cn2c3ccccc3c3ccccc32)OC1=O (centres undefined)
 : /, 0.65
CCOc1ccc(CN(C)C(=O)CNC(=O)c2ccc(Br)o2)cc1OC
 : /, -0.15
COc1cc(OC)c(NC(=O)Cn2nc(C)c3c(C)n(-c4ccccc4)nc3c2=O)cc1Cl
 : 0.34, 0.75
Oc1ccccc1-c1nnco1
 : 4.3, -1.9
COc1ccc(C)cc1S(=O)(=O)N(C)C1CCN(Cc2ccc(C(F)(F)F)cc2)C1 (centres undefined)
 : 0.1, /
O=C(/C=C/c1ccc(Cl)cc1)Nc1nnc(C2CC2)s1
 : 0.14, 0.55
Cc1ccc(Sc2nc(-c3ccccc3)nnc2-c2ccccc2)cc1
 : -0.71, /
CCOc1ccccc1N(C)C(=O)c1cc2cc3ccc(OC)cc3nc2s1
 : 0.26, -0.35
CCC(=O)c1ccc(Cl)c(Cl)c1
 : -0.42, 1.1
CCOC(=O)C1=CN(Cc2ccc(OC)cc2)C=C(C(=O)OCC)C1c1ccc(OC)cc1OC
 : 14, /
COc1ccc(/C=C(\C#N)c2ccc([N+](=O)[O-])cc2)cc1
 : -0.02, /

# A portion taken from the entries so far:
# Values run as follows: CapD inh, AID504770
CCC(=O)c1ccc(Cl)c(Cl)c1
 : -0.42, 1.1
CCOC(=O)C1=CN(Cc2ccc(OC)cc2)C=C(C(=O)OCC)C1c1ccc(OC)cc1OC
 : 14, /
COc1ccc(/C=C(\C#N)c2ccc([N+](=O)[O-])cc2)cc1
 : -0.02, /

# Carrying on:
# Values run as follows: CapD inh, AID504770
COc1ccc(Nc2ccc3nnc(-c4ccc(Br)cc4)n3n2)cc1
 : -0.67, 1.5
N#CC1=C(N)N(c2cc(C(F)(F)F)ccc2Cl)C2=C(C(=O)CCC2)C1c1cccnc1 (centres undefined)
 : -0.3, /
C=CCn1c(N)c(C(=O)Nc2ccccc2OC)sc1=S
 : -0.65, /
Cc1ccc(Cc2c(C)nc(N3CCCC3)[nH]c2=O)cc1
 : -0.4, 0.35
CC(O)CNC(=O)C1CC(=O)N(c2ccccc2)C1 (centres undefined)
 : /, 0.7
N#C/C(=N\Nc1cccc(C(F)(F)F)c1)C(=O)c1ccsc1
 : -1.8, /
CCn1cc(C(C)(C)C)c(C#N)c1NC(C)=O
 : -0.015, 0.85
CNC(=S)N(Cc1ccco1)Cc1cc2ccc(C)cc2[nH]c1=O
 : /, -0.7
Cc1ccc2oc(=O)c3cc(C(=O)NCCN4CCN(Cc5ccccc5)CC4)sc3c2c1
 : 0.52, -0.75
O=S(=O)(CCc1ccccc1)/N=C/c1cccs1
 : 0.41, -0.9
CCc1cc2c(COC(=O)c3ccccn3)cc(=O)oc2cc1O
 : /, -0.5
CCN(Cc1ccccc1)C(=O)CC1Oc2ccccc2NC1=O (centres undefined)
 : -0.47, -1.4
CCOC(=O)c1cc(-c2cccs2)nn1CCC#N
 : /, -0.55
Nc1ncc(-c2cc3ccccc3oc2=O)s1
 : -0.18, -0.05
Cc1ccc(COn2c(-c3ccccc3)nc3ccccc3c2=O)cc1
 : -0.64, -1
CC1CCN(S(=O)(=O)c2cc(Br)cc(C(=O)OCC(=O)N3CC(=O)Nc4ccccc43)c2)CC1
 : /, -0.05
COc1ccc(C2C(C(=O)N3CCN(Cc4ccc5c(c4)OCO5)CC3)CC(=O)N2c2ccc(OC)cc2)cc1 (centres undefined)
 : -0.28, 0.1
CCOC(=O)Cn1cnc2c(nnn2-c2ccc(C)cc2)c1=O
 : 0.38, -0.3
COc1cc(OC)c(C2C(C#N)=C(N)Oc3n[nH]c(-c4ccc([N+](=O)[O-])cc4)c32)cc1OC (centres undefined)
 : -0.21, /
COC(=O)C1=C(C(=O)OC)SC(=C2C(=S)C(C)(C)N(C(=O)CCC3CCCCC3)c3cc(C)ccc32)S1
 : 0.25, /

# Values run as follows: CapD inh, AID504770
COC(=O)c1cn(CC(=O)OCC(=O)Nc2ccc(F)cc2)c2ccccc12
 : /, -0.45
COc1ccc(C2(CN)CCOCC2)cc1OC
 : -0.48, /
CCN(Cc1ccccc1)C(=O)c1ccc(C(=O)N(CC)Cc2ccccc2)cc1
 : -0.32, -0.65
O=C(CSc1ncnc2sc3c(c12)CCC3)NCCN1C(=O)CSC1=O
 : /, 0.05
O=C(/C=C/c1ccccc1)Nc1ccc2c(c1)OCO2
 : /, -0.65
Cc1nn2c(C(F)(F)F)cc(-c3cccs3)nc2c1Br
 : 0.56, /
CC(C)CN(CC(C)C)S(=O)(=O)N1CCC(C(=O)N2CCOCC2)CC1
 : 0.37, -0.65
COc1cc(C2C3=C(CCCC3=O)N(c3cc([N+](=O)[O-])ccc3C)C(=N)/C2=C(/O)c2ccccc2)cc(OC)c1OC (centres undefined)
 : -0.43, /
O=C(c1ccccc1C(F)(F)F)N1CCCN(CCc2ccccc2)CC1
 : 1.8, 0.9
CCN(CC)N=Nc1ccc(S(=O)(=O)Nc2nc(C)cc(C)n2)cc1
 : /, -0.55
Cc1onc(-c2c(Cl)cccc2Cl)c1C(=O)Nc1ccc(Br)cn1
 : 0.55, /
Cc1ccc2nc(SCC(=O)N(C(C)C)C(C)C)[nH]c2c1
 : -0.09, 0.55
O=C(NCc1ccc(Cl)cc1)c1ccc2c(=O)n(-c3ccccc3)c(=O)[nH]c2c1
 : 0.49, 1.2
COC(=O)Cc1nc(Nc2ccc(F)cc2F)c2c(C)c(C)sc2n1
 : -0.59, /
COc1ccc(CN2C(=O)NC(=O)/C(=C\c3cc4c(cc3[N+](=O)[O-])OCO4)C2=O)cc1
 : 1.1, /
Cc1ccc(C(=O)OCc2cn3ccccc3n2)cc1
 : 1.6, 0.7
COc1ccc(Cl)cc1NC(=O)c1cc(S(=O)(=O)NC2CCCCC2C)ccc1F (centres undefined)
 : 1.5, /
COc1ccc(C2C3=C(Nc4c2c(=O)n(C)c(=O)n4C)c2ccccc2C3=O)cc1 (centres undefined)
 : 0.96, /
Cc1c(NC2CS(=O)(=O)CC2O)c(=O)n(-c2ccccc2)n1C (centres undefined)
 : 0.17, 1.5
CCOC(=O)c1sc(Nc2nc3ccccc3nc2Cl)c(C#N)c1C
 : /, -0.25

# Values run as follows: CapD inh, AID504770
CC(=O)N1[C@@H](c2ccc(C)cc2)SC(C)(C)[C@@H]1C(=O)O
 : 0.7, -0.45
O=C(O)CCN1C(=O)/C(=C2/C(=O)N(CC(=O)Nc3cccc(C(F)(F)F)c3)c3ccccc32)SC1=S
 : -0.32, /
CC1Cc2ccccc2N1CC(=O)Nc1ccc(C#N)cc1 (centres undefined)
 : /, -0.2
O=C(Nc1cccc(C(F)(F)F)c1)c1cc(=O)n(Cc2ccccc2)c(=O)[nH]1
 : 0.3, /
c1ccc(SCCN2CCN(CCSc3ccccc3)CC2)cc1
 : -0.04, -0.65
COc1ccc(C(=O)n2ncc(C#N)c2N)cc1
 : /, 0.05
CC1=CC(c2ccc(F)cc2)C(C(=O)O)(C(=O)n2nc(C)cc2C)CC1 (centres undefined)
 : 1.2, -0.15
CNC(=S)Nc1cscc1S(=O)(=O)c1ccc(Cl)cc1
 : 0.36, 0.2
COc1ccccc1C(=O)COC(=O)CCC1CCCC1
 : -0.02, 0.2
O=C(/C=C/Sc1ccccn1)c1ccccc1
 : -1.7, -0.5
O=C(CN1CC=C(c2ccccc2)CC1)NCc1cccs1
 : /, -2.1
CCOC(=O)Nc1c(C(=O)OCC)[nH]c2ccc(OC)cc12
 : 47, /
NC(=O)C(c1ccccc1)C1CCCC1 (centres undefined)
 : 0.71, /
COc1ccc(OC)c(CNC(=O)C2CCCN(S(=O)(=O)N3CC(C)CC(C)C3)C2)c1 (centres undefined)
 : -0.36, 0.1
O=C1/C(=C/c2cccnc2)CS/C1=C\c1cccnc1
 : 0.42, 0.5
COc1cc(C2C(C#N)=C(C)NC3=C2C(=O)CCC3)ccc1OCc1ccccc1 (centres undefined)
 : 59, 0.15
CCOC(=O)/C(=N\Nc1ccccc1Cl)N(C)C1CCN(C)CC1
 : /, 0.55
CC(C)(C)c1c[n+](-c2ccccc2)c2n1CCS2
 : 0.095, 1.1

# A portion of the library; the hit share may differ from the screen's.
